CBX7 AlphaScr: CBX7 chromodomain binding inhibitors, primary screen, biochemical, AlphaScreen | Chromobox protein homolog 7 (Homo sapiens), O95931 | AlphaScreen His6-CBX7 / biotin-H3K27me3 peptide binding; stronger effect = lower value | normalised signal (fraction of DMSO) (test concentration not listed) | 1.1% of 66,000 active | AID 1224903, 2016; in the data active means normalised signal below about 0.5;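 further: 100 nL library stock added to about 20 µL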
Target sequence (O95931 whole entry, looked up): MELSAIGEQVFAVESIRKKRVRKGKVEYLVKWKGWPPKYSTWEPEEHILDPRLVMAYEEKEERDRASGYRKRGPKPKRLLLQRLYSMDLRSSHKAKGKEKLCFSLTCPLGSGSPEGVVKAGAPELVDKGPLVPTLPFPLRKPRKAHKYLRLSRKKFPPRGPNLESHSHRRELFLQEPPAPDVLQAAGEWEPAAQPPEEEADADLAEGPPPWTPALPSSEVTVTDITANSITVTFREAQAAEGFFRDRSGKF
CBX7 AlphaScr z-score: recorded beside CBX7 AlphaScr, whose call it bears; z-score; measured here: z-score of CBX7 signal; some inactives read as strong as hits; reference of the scale not given here;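 same signal on another scale; lower means less binding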
Starred values were filed as active, the others as inactive.

SMILES | CBX7 AlphaScr | CBX7 AlphaScr z-score
COc1ccccc1C1CC(c2ccc(Br)cc2)Nc2ncnn21 (configuration not stated) | 0.98 | -0.69
COc1ccccc1CNC(=O)C1c2ccccc2C(=O)N2CCc3ccccc3C12 (configuration not stated) | 1 | 0.61
Cc1nc2ccc(S(=O)(=O)N(C)CC(=O)Nc3ccc(C)c(C)c3)cc2s1 | 1.3 | 1.7
COc1ccc(NS(=O)(=O)c2ccc3c(c2)CCC(=O)N3)cc1 | 1 | 0.59
Cc1c(Cl)cccc1-n1ncnc1-c1ccc(Br)cc1 | 1.2 | 2.1
COC(=O)Nc1ccc2c(c1)N(C(=O)CCN(C)C)c1ccccc1CC2 | 1.1 | 1.5
O=C(NC1CCCCCCC1)c1ccc(Cl)c(NC2=NC3CS(=O)(=O)CC3S2)c1 (configuration not stated) | 0.98 | -0.22
O=C(NC1CCCC1)c1cc(-c2ccccc2)nc2ccccc12 | 1.1 | 0.13
Cc1ccccc1CN1C(=O)CSc2ccc(C(=O)NCc3ccccc3Cl)cc21 | 1.1 | 1.2
Nc1c(C(=O)NCCc2ccccc2)nnn1Cc1ccccc1 | 1 | -0.039
COc1ccccc1Cc1nc(-c2ccc(OC)c(OC)c2)no1 | 0.97 | -0.4
Cc1cc2nc(Nc3nc(O)c(C)c(=O)[nH]3)nc(C)c2cc1C | 1 | 0.26
Cc1sc(Nc2ccc(Cl)c(Cl)c2)nc1-c1ccc(Cl)cc1 | 0.84 | -3.1
CCN(CC)CCCn1c(-c2ccc(Br)cc2)cn2c3ccccc3nc12 | 0.82 | -2.7
Cc1ccccc1-n1nc2c(c1NC(=O)CC1CCCCC1)CS(=O)(=O)C2 | 1 | 0.07
O=C(Nc1nc(-c2ccc(F)cc2)cs1)c1ccc(Oc2ccccc2)cc1 | 0.98 | -0.4
Cc1ccc(Cl)cc1N1CCN(C(=O)CCn2c(=O)[nH]c3ccccc3c2=O)CC1 | 0.81 | -0.53
CC1CCCC(NC(=O)c2ccc3c(c2)N(Cc2ccccc2)C(=O)CS3)C1C (configuration not stated) | 1 | 0.21
CCN(CC)CCCn1c(-c2ccccc2)cn2c3ccccc3nc12 | 0.74 | -2.8
CCCOc1ccc(C(=O)N(Cc2ccc(OC)cc2)C2CCS(=O)(=O)C2)cc1 (configuration not stated) | 0.87 | -0.13
CC(CNC(=O)CSCc1cnn(-c2ccccc2)c1-n1cccc1)c1ccccc1 (configuration not stated) | 0.97 | -1.3
O=C(Nc1ccccc1F)C1c2ccccc2C(=O)N2CCc3ccccc3C12 (configuration not stated) | 0.85 | -2.4
COc1ccccc1CCNC(=O)c1cnc2ccccn2c1=O | 1.2 | 2.3
Clc1ccccc1N1CCN(c2nc(Cc3ccccc3)nc3sc4c(c23)CCCC4)CC1 | 1 | 0.011
FC(F)(F)c1c2c(nc3cc(-c4ccc(Cl)cc4)nn13)CCCC2 | 1.2 | 1.8
CCN(CC)S(=O)(=O)c1ccc2c(c1)CCN2C(C)=O | 1.3 | 1
COc1ccc(NC(=O)C(c2ccccc2)N(C)C(=O)CC2NC(=O)NC2=O)cc1 (configuration not stated) | 1.1 | 1.8
O=C(Cn1nc(Cc2cccnc2)c2ccccc2c1=O)NC1CC1 | 1.1 | 0.092
O=C(NCCC1=CCCCC1)C1CCN(S(=O)(=O)c2ccccc2)CC1 | 1 | 0.042
CC(C)(C)NC(=O)c1cc2c(n(-c3ccc(Cl)cc3)c1=O)CCCC2=O | 1 | 1
CCC(C)NC(=O)c1ccc2c(c1)N(Cc1ccccc1F)C(=O)c1ccccc1S2=O (configuration not stated) | 0.92 | -2.2
COc1ccc(NC(=O)c2cc(-c3ccc4c(c3)OCO4)on2)c(OC)c1 | 1.1 | 1
CCN1CCN(C(=O)c2ccc3c(c2)NC(=O)c2ccccc2S3)CC1 | 1.3 | 2.2
CCN(CC)C(C(=O)NC1CCCCC1)c1ccccc1 (configuration not stated) | 1.1 | 1
COC(=O)c1c[nH]n2c(NC3CCCCC3)c(-c3cccc(C)c3)nc12 | 0.51 | -9.7
Cc1ccc(O)c(-c2cc(-c3ccc(F)cc3)no2)c1 | 0.98 | -0.41
O=C(Nc1ccc(OC(F)(F)F)cc1)c1cc(-c2cccc(Cl)c2)on1 | 1.1 | 1.6
COc1ccc(C(=O)NCCc2cc3c(OC)ccc(OC)c3[nH]c2=O)cc1OC | 1 | 0.6
Cc1ccc(C)c(Cn2c(CNC(=O)C(C)(C)C)nc3ccccc32)c1 | 1.1 | 1.4
O=C(CCc1nnc2ccc(N3CCOCC3)nn12)NCc1ccc2c(c1)OCO2 | 0.95 | -0.96
Cc1ccc(OCC(=O)Nc2cccc(-c3nc4ccccc4o3)c2)cc1C | 1 | 0.082
CCOC(=O)C1CCN(c2c(NCc3ccc(Cl)cc3)c(=O)c2=O)CC1 | 1.2 | 2.7
Cc1oc(-c2ccccc2F)nc1CN1CCC(C(=O)N2CCCC2)CC1 | 0.89 | -0.9
CC(C)c1ccc(NC(=O)C2=CCN(S(=O)(=O)c3ccc(F)cc3)CC2)cc1 | 0.91 | -1.6
CCCOc1ccc(C2CC(=O)NC3=C2C(=O)CCC3)cc1 (configuration not stated) | 1.2 | 1.2
CCCCc1ccc(-c2nc(Nc3cc(Cl)cc(Cl)c3)c3ccccc3n2)cc1 | 1 | 0.61
COc1cccc(-c2cn3nc4c(nc3n2)CCCC4)c1 | 1.2 | 2.1
COc1ccc(-c2nc3ccc(Br)cn3c2Nc2ccc(C)cc2)cc1 | 1 | 0.035
CCC1CCCCN1C(=O)Cn1cnc2ccc(S(=O)(=O)N3CCC(C)CC3)cc2c1=O (configuration not stated) | 1.1 | 0.65
CN(Cc1ccccc1)C(=O)CN1C(=O)CCSc2ccccc21 | 1 | 0.78
O=C(NCc1nc2ccccc2[nH]1)c1ccc(F)cc1 | 0.96 | -0.41
Cc1cc(N2CC(C)CC(C)C2)nc2ccc(NC(=O)CCC(=O)N3CCCCCC3)cc12 (configuration not stated) | 1 | -0.044
COC(=O)c1ccc2c(c1)N(Cc1ccc(F)cc1)C(=O)c1ccccc1S2(=O)=O | 1.1 | 3
O=C(CSc1nnc(CNC(=O)c2ccccc2F)o1)NCc1ccccc1 | 1.1 | 1.5
CCCCNC(=O)C1CCC(=O)N1Cc1ccccc1Cl (configuration not stated) | 1 | 0.63
COc1ccccc1N(CC(O)CN1C(=O)NC(C)(C)C1=O)S(=O)(=O)c1ccc(C)cc1 (configuration not stated) | 1.1 | 1.6
CCN(CC)S(=O)(=O)c1ccc2c(c1)CCN2C(=O)C1CCC1 | 1 | 0.64
Cc1ccc(N2CCN(C(=O)CCc3nnc4ccc(N5CCOCC5)nn34)CC2)c(C)c1 | 0.96 | -0.71
COc1ccc(Cn2c(CCC(=O)Nc3cc(C)ccc3C)nc3cccnc32)cc1 | 1 | 0.16
CC(C(=O)NCc1ccc(F)cc1)N1C(=O)CC(C)(C)Sc2ccccc21 (configuration not stated) | 0.99 | -0.4
More entries
SMILES | CBX7 AlphaScr | CBX7 AlphaScr z-score
O=C1CC(c2cccs2)Cc2nc(NCCN3CCOCC3)ncc21 (configuration not stated) | 0.98 | -0.53
Cc1ccccc1-c1noc(-c2ccc(Br)cc2)n1 | 1.2 | 1.5
CCC(=O)N1CCc2cc(S(=O)(=O)N3CCN(c4cccc(C)c4)C(C)C3)ccc21 (configuration not stated) | 0.73 | -1.1
Cc1cccc(NC(=O)CNC(=O)Cn2c(C)cc3ccccc3c2=O)n1 | 1.1 | 1.4
O=C(C1CCN(S(=O)(=O)c2cccc3cccnc23)CC1)N1CCCC1 | 0.99 | -0.12
O=C(CN1C(=O)COc2ccc(S(=O)(=O)N3CCCC3)cc21)N1CCCCC1 | 1 | 0.47
COc1cccc(Nc2cc(C)c3ccc(O)cc3n2)c1 | 0.93 | -1.4
CC(=O)Nc1ccc2c(c1)ncn2-c1ccccc1 | 1 | 0.16
COc1ccc(NC(=O)c2cnn3c2NC(c2ccc(OC)c(OC)c2)CC3C(F)(F)F)cc1 (configuration not stated) | 1 | 0.0033
COc1ccc(-c2nc(-c3cccs3)no2)cc1 | 1.2 | 8.4
CCOCCCNC(=O)CCNC(=O)Cn1ccc2ccccc2c1=O | 1 | 0.12
COc1ccc(NC(=O)Nc2nnc(C)s2)cc1 | 0.95 | -0.83
COc1ccccc1CNC(=O)C1CC(=O)N(c2ccc(F)cc2)C1 (configuration not stated) | 0.92 | -0.89
CCN(c1cccc(C)c1)C(C(=O)NC1CCCCC1)c1ccc(C)cc1 (configuration not stated) | 0.74 | -6.5
Cc1cccc(C)c1NC(=O)Nc1csc2c1CCCC2 | 1.1 | 0.9
CCN(CC)S(=O)(=O)c1ccc2oc(C(=O)NC3CCCCC3C)c(C)c2c1 (configuration not stated) | 0.9 | -0.98
O=C(Nc1cc(C(F)(F)F)ccc1Oc1ccc(-c2ccccc2)cc1)c1cccnc1 | 0.68 | -1.1
CCOC(=O)N1CCC(NC(=O)CSCc2nc(-c3ccccc3Cl)oc2C)CC1 | 0.98 | -0.3
O=C(Nc1ccccc1-c1nc2ccccc2[nH]1)c1cccc(F)c1 | 0.98 | -0.32
Cc1cc(OCC(=O)Nc2cc(-c3nn4c(C)nnc4s3)ccc2C)ccc1Cl | 1 | 0.062
O=C(NC1CCCCC1)C1c2cccn2CC(=O)N1CCc1ccc(Cl)cc1 (configuration not stated) | 1 | -0.093
CCOc1ccc(NC(=O)CSc2nnc(-c3c[nH]c4ccccc34)n2C)cc1 | 0.74 | -4.5
COc1ccc(-c2cc(C(=O)NC(C)C)c3cc(C(C)C)ccc3n2)cc1 | 0.96 | -0.87
Cc1ccccc1-c1nc(CS(=O)(=O)CC(=O)N2CCN(C)CC2)c(C)o1 | 1 | 0.93
CCOC(=O)c1cc(-c2ccc(OC)cc2)n(CCC(=O)NCc2ccc(OC)cc2)c1C | 1 | 0.49
CCOc1cc2c(cc1OCC)C1C(C(=O)Nc3cccc(OC)c3)c3ccccc3C(=O)N1CC2 (configuration not stated) | 0.99 | -0.1
Cc1ccc(-c2cn(-c3cc(C)cc(C)c3)c(=O)[nH]2)cc1 | 0.97 | -0.66
O=C(NCc1ccccc1)C1CCCN1S(=O)(=O)c1cccc2cccnc12 (configuration not stated) | 1 | 0.38
COc1ccc(OC)c2[nH]c(=O)c(CCNC(=O)c3ccccc3C)cc12 | 1 | 0.62
CCCCN(CCCNC(=O)c1cc2sc(Cl)cc2n1CC)Cc1ccccc1 | 0.96 | -1.5
CCN(CCCNC(=O)c1cc2c(-c3cccc(OC)c3)nn(C)c2s1)Cc1ccccc1 | 0.89 | -3
CCOC(=O)c1nc(Nc2ccccc2Cl)c2ccccc2n1 | 1 | 0.032
CCCCN(CCCC)C(=O)c1nsnc1-c1ccccc1O | 0.87 | -2.7
O=C(CCn1c(=O)[nH]c2ccsc2c1=O)NCc1cccnc1 | 1 | 0.07
CCOc1ccccc1CNC(=O)Cn1nc(C)c2ccccc21 | 1.1 | 3.2
COc1ccc(-n2nnnc2S(=O)(=O)CC(=O)N2CCCCC2)cc1 | 0.98 | -0.44
Nc1nonc1-c1nc2ccccc2n1Cc1ccccc1Cl | 1 | 0.069
O=C(c1cc2n(n1)C(C(F)(F)F)CC(c1ccccc1)N2)N(Cc1ccccc1)Cc1ccccc1 (configuration not stated) | 0.78 | -1.8
CCOc1cc2[nH]c(=O)n(CCCC(=O)NCc3ccc4c(c3)OCO4)c(=O)c2cc1OCC | 0.99 | -0.2
COc1ccc(CCNC(=O)c2cc(-c3ccc(F)cc3)on2)cc1OC | 1 | 0.086
CCOC(=O)N1CCC(NC(=O)Cn2nc(Cc3cccnc3)c3ccccc3c2=O)CC1 | 1 | 0.058
CCOc1nc(-c2ccc(Cl)cc2)nc2ccccc12 | 1.1 | 0.62
COc1ccc(-n2c(Cc3cc(=O)[nH]c(=O)[nH]3)nnc2SCC(=O)Nc2cccc(C)c2C)cc1 | 0.85 | -2.2
COc1ccc(CNC(=O)C2CCN(C(=O)c3cnn(-c4ccccc4)c3-n3cccc3)CC2)cc1 | 0.87 | -0.3
Cc1ccc(-n2ncc(C(=O)Nc3ccccc3)c2C2CCNCC2)cc1 | 1.1 | 1.4
COc1ccc(C2CC(=O)N(CC(=O)Nc3cccc(C)c3C)c3ccccc3S2)cc1 (configuration not stated) | 0.96 | -0.72
CCc1ccc(NC(=O)C2(S(=O)(=O)c3ccc(Cl)cc3)CC2)cc1 | 1.1 | 3.4

Molecules listed so far that contain an NH in an aromatic ring:
SMILES | CBX7 AlphaScr | CBX7 AlphaScr z-score
Cc1cc2nc(Nc3nc(O)c(C)c(=O)[nH]3)nc(C)c2cc1C | 1 | 0.26
Cc1ccc(Cl)cc1N1CCN(C(=O)CCn2c(=O)[nH]c3ccccc3c2=O)CC1 | 0.81 | -0.53
COC(=O)c1c[nH]n2c(NC3CCCCC3)c(-c3cccc(C)c3)nc12 | 0.51 | -9.7
COc1ccc(C(=O)NCCc2cc3c(OC)ccc(OC)c3[nH]c2=O)cc1OC | 1 | 0.6
O=C(NCc1nc2ccccc2[nH]1)c1ccc(F)cc1 | 0.96 | -0.41
O=C(Nc1ccccc1-c1nc2ccccc2[nH]1)c1cccc(F)c1 | 0.98 | -0.32
CCOc1ccc(NC(=O)CSc2nnc(-c3c[nH]c4ccccc34)n2C)cc1 | 0.74 | -4.5
Cc1ccc(-c2cn(-c3cc(C)cc(C)c3)c(=O)[nH]2)cc1 | 0.97 | -0.66
COc1ccc(OC)c2[nH]c(=O)c(CCNC(=O)c3ccccc3C)cc12 | 1 | 0.62
O=C(CCn1c(=O)[nH]c2ccsc2c1=O)NCc1cccnc1 | 1 | 0.07
CCOc1cc2[nH]c(=O)n(CCCC(=O)NCc3ccc4c(c3)OCO4)c(=O)c2cc1OCC | 0.99 | -0.2
COc1ccc(-n2c(Cc3cc(=O)[nH]c(=O)[nH]3)nnc2SCC(=O)Nc2cccc(C)c2C)cc1 | 0.85 | -2.2

The list is partial; the hit share may differ from the screen's.
